Assay outcomes deposited in PubChem BioAssay by National Center for Advancing Translational Sciences (NCATS).
StopGo reporter: High Throughput Screening for Foot and Mouth Disease Virus Antivirals; human cells with a luciferase reporter of 2A StopGo recoding; control for the full effect not named in the record; Potency, µM (top dose mostly 57.9 µM), without a hit: at the highest dose signal change, negative = less light; 410,000 compounds, 1.2% hits; AID 1159524, 2015; active = well fitted falling curve with a large enough effect; inconclusive = small, poorly fitted or top-dose-only effect; inactive = no such curve, though single readings can be large or run the other way; tested in HEK293T cells; note: % is set by controls: 0 for no effect and ±100 for the full control effect; nearly all actives have a fitted effect of over 45% in size; luciferase light after 4 h
Cruzain noTriton: qHTS Assay for Promiscuous and Specific Inhibitors of Cruzain (without detergent); Cruzipain (Trypanosoma cruzi), P25779; purified cruzain, Z-FR-AMC fluorescence, no detergent; Potency, µM, for inactives: max response, negative = inhibition, actives largely listed as inhibitors; 200,000 compounds, 2.3% hits;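 note: plate controls were enzyme without inhibitor for no effect and buffer without enzyme for full effect; nearly all actives have a fitted effect of over 40% in size; top concentration of the series not given in the record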
Target sequence (P25779 123-467 limits assumed): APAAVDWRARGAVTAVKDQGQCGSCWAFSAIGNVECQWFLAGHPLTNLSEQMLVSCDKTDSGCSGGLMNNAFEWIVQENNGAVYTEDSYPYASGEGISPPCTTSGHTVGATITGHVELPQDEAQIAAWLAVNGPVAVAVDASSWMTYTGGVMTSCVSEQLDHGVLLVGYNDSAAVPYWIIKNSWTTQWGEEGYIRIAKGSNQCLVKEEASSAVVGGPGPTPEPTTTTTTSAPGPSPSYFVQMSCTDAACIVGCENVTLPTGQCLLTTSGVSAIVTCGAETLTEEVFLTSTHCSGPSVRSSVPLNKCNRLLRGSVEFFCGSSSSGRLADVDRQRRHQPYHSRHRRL
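Purified cruzain at 1.5 nM, pre-incubated 15 min with compound at room temperature in 100 mM sodium acetate pH 5.5, 5 mM DTT, 0.00005% Triton X-100. Reaction started with 2 uM Z-FR-AMC; AMC fluorescence increase over 60 s gives rate.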
LASV entry inh: qHTS for Inhibitors of binding or entry into cells for Lassa Virus. Lassa virus pseudotype entry inhibition, cell reporter; control for the full effect not named in the record. 300,000 compounds, 1.2% hits. Potency, µM (doses to about 37.9 µM), for inactives: top-dose activity change, negative = inhibition, hits mostly inhibitors. AID 540256, 2011; active means well fitted inhibition curve with a large enough effect; inconclusive means small, poorly fitted or top-dose-only effect, or effect the other way; inactive means flat fitted curve, though single readings scatter; tested in HEK293 cells; note: % is set by controls: 0 for no effect and ±100 for the full control effect; nearly all actives have a fitted effect of over 50% in size; luciferase read-out
SARS PLP yeast: qHTS of Yeast-based Assay for SARS-CoV PLP; S. cerevisiae expressing SARS-CoV PLpro, growth rescue; control for the full effect not named in the record; Potency, µM (top dose mostly 32.9 µM), for the others: top-dose activity, positive = growth rescue; 330,000 compounds, 0.19% hits; AID 485353, 2010; active means well fitted rising curve with a large enough effect; inconclusive means small, poorly fitted or top-dose-only effect; inactive means no such curve, though single readings can be large or run the other way; note: 0% is about no effect; nearly all actives have a fitted effect of over 55% in size; growth read by luminescence after 48 h
Marburg entry inh: qHTS for inhibitors of binding or entry into cells for Marburg Virus; Marburg virus pseudotyped entry inhibition, cell reporter; control for the full effect not named in the record; about a third of the inactives were read at about 46 µM; Potency, µM (series often up to 37.8 µM), for the others: at the top dose activity change, negative = inhibition, actives largely listed as inhibitors; 300,000 compounds, 1.8% hits; active = well fitted inhibition curve with a large enough effect; inconclusive = small, poorly fitted or top-dose-only effect, or effect the other way; inactive = flat fitted curve, though single readings scatter; tested in HEK293 cells; about a fifth of its hits are not listed in these tables; note: % is set by controls: 0 for no effect and ±100 for the full control effect; luciferase read-out
Cruzain Triton: qHTS Assay for Promiscuous and Specific Inhibitors of Cruzain (with detergent); Cruzipain (Trypanosoma cruzi), P25779; purified cruzain, Z-FR-AMC fluorescence, 0.01% Triton; Potency, µM, inactives show max response, negative = inhibition, most hits filed as inhibitors; 200,000 compounds, 0.43% hits;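 note: plate controls were neutral wells for no effect and buffer without enzyme for full effect; nearly all actives have a fitted effect of over 40% in size; top concentration of the series not given in the record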
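Compounds were screened in titration against cruzain (1.5 nM) with 0.01% Triton X-100 to counter colloidal aggregation. Activity was the AMC fluorescence increase over 60 s after adding 2 uM Z-FR-AMC at pH 5.5.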
NS1 inh: qHTS Assay for Inhibitors of Influenza NS1 Protein Function; S. cerevisiae slowed by influenza A NS1, growth recovery by OD600; Potency, µM (top dose mostly 46.1 µM), for the others: at the highest dose activity, positive = more growth; 270,000 compounds, 0.4% hits; AID 2326, 2010; active means well fitted rising curve with a large enough effect; inconclusive means small, poorly fitted or top-dose-only effect; inactive means no such curve, though single readings can be large or run the other way; note: nearly all actives have a fitted effect of over 50% in size
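A cell-based growth assay was used: compounds that relieve NS1-induced slow growth of budding yeast raise OD600. Assay medium was yeast nitrogen base with ammonium sulphate and -URA supplement, pH 6.0, with 2% galactose.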
RE007 growth inh: qHTS Assay for Inhibitors of the HIV-1 protein Vpr; 360,000 compounds, 0.21% hits; Potency, µM (doses to about 92.2 µM), inactives show top-dose activity change, negative = less growth; S. pombe RE007 Vpr strain, BacTiter-Glo ATP luminescence, 24 h; control for the full effect not named in the record; active = well fitted falling curve with a large enough effect; inconclusive = small, poorly fitted or top-dose-only effect; inactive = no such curve, though single readings can be large or run the other way;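 note: % is set by controls: 0 for no effect and ±100 for the full control effect; nearly all actives have a fitted effect of over 50% in size; the assay follows cell death caused by Vpr and the record does not say whether a fall means rescue or toxicity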
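Fission yeast strain RE007, carrying one chromosomally integrated HIV-1 vpr copy, was seeded at OD 0.01 in PMG+AL medium with 23 nL pinned compound. After 24 h at 30 °C and 99% humidity, viability was read by BacTiter-Glo luminescence.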
* = called active by the depositor; u = inconclusive; x = not tested or not shown; [ ] = remark or other dose. Unless noted, calls come from the whole dose curve; as a rule, active = well fitted curve in the direction sought with a large enough effect; inconclusive = small, poorly fitted or top-dose-only effect, or another doubt; inactive = no such curve, though single readings can be large; an effect the other way counts as inactive or inconclusive. Potency is the fitted concentration of half-maximal effect. Rows are unselected; about 4.6% have a hit in one of these screens.

Molecule	StopGo reporter	Cruzain noTriton	LASV entry inh	SARS PLP yeast	Marburg entry inh	Cruzain Triton	NS1 inh	RE007 growth inh
N=c1n(CCN2CCCC2)c2ccccc2n1CC(O)c1ccco1 (stereo not drawn)	-2%	-3%	u	1%	u	4.4%	-4%	-7%
CCn1c(SCC(=O)NCc2ccc3c(c2)OCO3)nnc1-c1ccco1	6%	x	21%[46.1 µM]	-3%	-13%[46.1 µM]	x	-2%	5%
O=S(=O)(c1ccc(Cl)cc1)N1CCCC1c1cccnc1 (stereo not drawn)	-1%	x	u	-2%	6%	x	-31%	11%
N#Cc1cnn2c(C(F)(F)F)c3c(nc12)CCCC3	-4%	x	x	1%	x	x	5%	-10%
CN(Cc1ccccc1)C(=O)COC(=O)c1ccc[nH]c1=O	-2%	x	14%	-8%	1%	x	x	4%
COC(=O)C1=C(C)N(c2ccc(C)cc2)/C(=C/c2cccs2)C1=O	u	0%	2%	9%	5%	-11%	-3%	-1%
COc1cccc(NC(=O)CN(C)CC(=O)Nc2ccc(C)c([N+](=O)[O-])c2)c1	-6%	x	11%[46.1 µM]	1%	u	x	-7%	-17%
COc1ccc(C(=O)NCC2CCCN2S(=O)(=O)c2cccs2)cc1 (stereo not drawn)	2%	x	0%	4%	11%	x	x	1%

Molecule	StopGo reporter	Cruzain noTriton	LASV entry inh	SARS PLP yeast	Marburg entry inh	Cruzain Triton	NS1 inh	RE007 growth inh
CCCCC[C@H]1CN(Cc2ccc(OC)cc2)C(=O)[C@@H]1CC(=O)NCc1ccccc1	-2%	x	x	-3%	x	x	-46%	10%
CC(C)[C@@H](N)C(=O)N/N=C/c1ccc2ncccc2c1	22%	x	u	-1%	-2%	x	2%	6%
CN(C)C(CNC(=O)CSc1nc2ccccc2c(=O)n1Cc1ccco1)c1ccccc1 (stereo not drawn)	7%	x	1%	-3%	u	x	x	-4%
OC1CCN(c2c3c(nc4cc(-c5ccc(Cl)cc5)nn24)CCC3)CC1	-20%	4%	-12%	-39%	-1%	-16%	3%	8%
COc1cc(N(C(=O)Cc2cccs2)C(C(=O)NC2CCCCC2)c2ccc(C)cc2)ccc1-n1cnnn1 (stereo not drawn)	6%	19%	0%	6%	8%	3.1%	16%	5%
CCn1c(=O)c(C(=O)Nc2ccccc2S(N)(=O)=O)c(O)c2ccccc21	11%	u	u	7%	5%	-3.6%	-7%	-7%
O=C(Cc1c(F)cccc1Cl)Nc1ccccc1N1CCCCC1	-10%	x	x	0%	x	x	-7%	14%
Cc1nnc(SCc2nnc(-c3ccc(Cl)cc3)o2)n1-c1ccccc1	-5%	-10%	2%	-6%	2%	0.6%	-12%	5%

Molecule	StopGo reporter	Cruzain noTriton	LASV entry inh	SARS PLP yeast	Marburg entry inh	Cruzain Triton	NS1 inh	RE007 growth inh
O=C(CSc1nnc(NC(=O)c2ccccc2)s1)NC1CCCC1	-29%	x	-19%[46.1 µM]	12%	u	x	32%	-4%
C=C(C)CSc1nc2sc3c(c2c(=O)n1Cc1ccccc1)CC(C)(CC)OC3 (stereo not drawn)	-14%	-1%	-18%[46.1 µM]	x	x	-2.4%	x	x
CC(Nc1ccc(-c2nc(-c3ccncc3)no2)cc1[N+](=O)[O-])c1ccccc1 (stereo not drawn)	-4%	19%	8%[46.1 µM]	x	5%[46.1 µM]	-3.0%	x	x
CCOC(=O)c1c(C)[nH]c(C(=O)OCC(=O)NCc2ccc(OC)c(OC)c2)c1C	u	x	-26%	-13%	-37%	x	x	2%
COc1ccccc1NS(=O)(=O)c1cccc(C(=O)N/N=C2\CC(=O)CC(C)(C)C2)c1	6%	-5%	8%	12%	-11%	1.9%	0%	1%
CC(Oc1cc2oc(=O)c3c(c2cc1Cl)CCCC3)C(=O)NCC1CCC(C(=O)O)CC1 (stereo not drawn)	-11%	x	x	u	x	x	15%	21%
COc1ccc(CC(=O)N2N=C(C)CC2(O)c2cccnc2)cc1 (stereo not drawn)	-19%	1%	-8%	-6%	-2%	-3.7%	8%	-2%
C=CCn1c(SCC(=O)NCC2CCCO2)nc2c([nH]c3ccccc32)c1=O (stereo not drawn)	-12%	x	x	-5%	x	x	1%	12%

Molecule	StopGo reporter	Cruzain noTriton	LASV entry inh	SARS PLP yeast	Marburg entry inh	Cruzain Triton	NS1 inh	RE007 growth inh
CC(=O)[C@@H]1[C@@H]2C(=O)N(c3ccccc3F)C(=O)[C@@H]2[C@H]2c3ccccc3C=NN12	-12%	x	24%	-2%	24%	x	1%	-10%
C=CCN(c1cccc(C(F)(F)F)c1)S(=O)(=O)c1cccc(C(=O)OCC(=O)NC)c1	-1%	u	11%[46.1 µM]	-5%	-5%[46.1 µM]	-3.0%	11%	0%
Cc1ccc(CN(C)C(=O)COC(=O)CSc2ccc([N+](=O)[O-])cc2)cc1	-12%	x	-3%	5%	u	x	x	u
COCCN(C(=O)CNC(=O)c1ccco1)C(C(=O)NC1CCCC1)c1cccc(OC)c1 (stereo not drawn)	-4%	x	-1%	-1%	17%[46.1 µM]	x	-6%	-10%
O=C(/C=C/c1cccc(Br)c1)NCC1CCCCC1	1%	2%	-19%	-8%	u	-6.1%	-13%	1%
O=C(COc1ccccc1)Nc1cc(C(F)(F)F)ccc1N1CCCC1	u	8%	u	-7%	u	-5.2%	-12%	1%
CCSc1nc2c(c(=O)n1-c1ccc(F)cc1)SCC2	x	2%	-12%	-1%	0%	-4.8%	-4%	-13%
COc1cccc(NC(=O)C(=O)NCCc2csc(-c3ccc(C)cc3)n2)c1	22%	-2%	-10%[46.1 µM]	x	x	0.1%	x	x

Quoted from the listing (seven entries):
Molecule	StopGo reporter	Cruzain noTriton	LASV entry inh	SARS PLP yeast	Marburg entry inh	Cruzain Triton	NS1 inh	RE007 growth inh
N=c1n(CCN2CCCC2)c2ccccc2n1CC(O)c1ccco1 (stereo not drawn)	-2%	-3%	u	1%	u	4.4%	-4%	-7%
CCn1c(SCC(=O)NCc2ccc3c(c2)OCO3)nnc1-c1ccco1	6%	x	21%[46.1 µM]	-3%	-13%[46.1 µM]	x	-2%	5%
O=S(=O)(c1ccc(Cl)cc1)N1CCCC1c1cccnc1 (stereo not drawn)	-1%	x	u	-2%	6%	x	-31%	11%
N#Cc1cnn2c(C(F)(F)F)c3c(nc12)CCCC3	-4%	x	x	1%	x	x	5%	-10%
CN(Cc1ccccc1)C(=O)COC(=O)c1ccc[nH]c1=O	-2%	x	14%	-8%	1%	x	x	4%
COC(=O)C1=C(C)N(c2ccc(C)cc2)/C(=C/c2cccs2)C1=O	u	0%	2%	9%	5%	-11%	-3%	-1%
COc1cccc(NC(=O)CN(C)CC(=O)Nc2ccc(C)c([N+](=O)[O-])c2)c1	-6%	x	11%[46.1 µM]	1%	u	x	-7%	-17%

Carrying on.
| Molecule | StopGo reporter | Cruzain noTriton | LASV entry inh | SARS PLP yeast | Marburg entry inh | Cruzain Triton | NS1 inh | RE007 growth inh |
| --- | --- | --- | --- | --- | --- | --- | --- | --- |
| COc1ccc(CCNC(=O)CCc2cc(OC)c(OC)c(OC)c2)cc1OC | -7% | x | -6%[46.1 µM] | 1% | -1%[46.1 µM] | x | 0% | -7% |
| Cc1nonc1OCCn1nnnc1N | -6% | -4% | 8% | 1% | 13% | 2.9% | -1% | 7% |
| Cc1c(N(C)S(=O)(=O)c2cc(C(=O)Nc3ccccn3)ccc2Cl)c(=O)n(-c2ccccc2)n1C | -6% | x | -2% | -3% | -5% | x | x | 4% |
| COc1ccc(NC(=O)CCS(=O)(=O)c2ccc3nc(C)sc3c2)cc1OC | -2% | x | x | -11% | x | x | 17% | 3% |
| CCc1ccccc1NC(=O)Cn1nc(C(F)(F)F)cc1C1CC1 | 8% | -2% | 15% | 1% | -15% | 12% | -4% | 13% |
| CCOc1ccccc1NC(=O)c1cn(C2CCCC2)c(=O)c2c1c1ccccc1n2C | -26% | -9% | u | x | u | 6.3% | x | x |
| CCNc1ncnc2c1cnn2C | 11% | x | 3% | -2% | -2%[46.1 µM] | x | x | -1% |
| Nc1nc2ccc(Cl)cc2o1 | -11% | x | 18% | x | -7% | x | x | -32% |
| CCN(CC)S(=O)(=O)c1ccc(C(=O)Nc2cccc(C)c2)cc1 | x | -6% | u | -1% | 4% | -2.5% | -32% | 10% |
| Cc1ccc(/C=C2/C(=O)N=C(N)N2C)s1 | -2% | -3% | -3% | 8% | u | -0.6% | 7% | 6% |
| O=C(CCCCCN1C(=O)[C@@H]2Cc3ccccc3CN2C1=O)Nc1cccc(F)c1 | u | x | 3%[46.1 µM] | -5% | x | x | -39% | 7% |
| CC(SCC(=O)O)c1nc2ccccc2[nH]1 (stereo not drawn) | 18% | x | -3% | -1% | 13% | x | -1% | -9% |
| O=C(Nc1ccc2nc(SCC(=O)N3CCCc4ccccc43)sc2c1)c1cccc(F)c1 | u | -26% | u | x | u | -5.1% | x | x |
| COc1cccc(-n2cnc3cccc(N)c32)c1 | x | -26% | -1% | -5% | -3% | 5.2% | -4% | 8% |
| O=C(Nc1cccc(Cl)c1)Nc1sccc1-c1nc2ccccc2s1 | -4% | x | -21% | -3% | u | x | 11% | -11% |
| COc1ccc(-c2cc(C(=O)Nc3cc(C)ccc3O)no2)cc1 | 43%[activator] | x | x | 0% | -7% | x | 2% | 8% |
